Assay outcomes (PubChem)
Mtb MbtI inh: MbtI salicylate synthase inhibition; inhibition, %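 (about 17 µg/mL by stock and volumes)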; 100,000 compounds, 0.89% hits; purified MbtI enzyme, fluorescence intensity read-out;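 active means above 50% in both replicates, above 80% if mildly self-fluorescent; inactive means the rest, strongly fluorescent compounds included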;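 further: 0% = mean of negative and 100% = mean of positive controls; one replicate is shown; some compounds called inactive have numbers as strong as hits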
Target sequence (P9WFX0 whole entry, looked up): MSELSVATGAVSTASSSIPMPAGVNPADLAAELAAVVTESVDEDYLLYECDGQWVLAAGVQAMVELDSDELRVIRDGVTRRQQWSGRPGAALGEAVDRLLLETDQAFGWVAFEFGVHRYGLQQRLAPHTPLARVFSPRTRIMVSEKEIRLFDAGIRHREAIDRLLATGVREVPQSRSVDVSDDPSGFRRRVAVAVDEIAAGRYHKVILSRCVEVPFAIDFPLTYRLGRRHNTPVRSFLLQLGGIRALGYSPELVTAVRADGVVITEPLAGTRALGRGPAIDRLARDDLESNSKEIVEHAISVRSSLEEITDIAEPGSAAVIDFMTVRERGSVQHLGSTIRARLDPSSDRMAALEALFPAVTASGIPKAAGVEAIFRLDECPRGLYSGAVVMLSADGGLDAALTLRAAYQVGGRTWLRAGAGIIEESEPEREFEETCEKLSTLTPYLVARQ
PV pol inh: poliovirus RNA polymerase inhibition; P03300; poliovirus polymerase elongation, fluorescence polarization; stronger effect = lower value; % elongation, % (compound at 16.7 µg/mL); 150,000 compounds, 0.66% hits; AID 588519; in the data active means % elongation below about 90%; further: some results filed as inactive read as strong as hits
Target sequence (P03300 1749-2209 limits assumed): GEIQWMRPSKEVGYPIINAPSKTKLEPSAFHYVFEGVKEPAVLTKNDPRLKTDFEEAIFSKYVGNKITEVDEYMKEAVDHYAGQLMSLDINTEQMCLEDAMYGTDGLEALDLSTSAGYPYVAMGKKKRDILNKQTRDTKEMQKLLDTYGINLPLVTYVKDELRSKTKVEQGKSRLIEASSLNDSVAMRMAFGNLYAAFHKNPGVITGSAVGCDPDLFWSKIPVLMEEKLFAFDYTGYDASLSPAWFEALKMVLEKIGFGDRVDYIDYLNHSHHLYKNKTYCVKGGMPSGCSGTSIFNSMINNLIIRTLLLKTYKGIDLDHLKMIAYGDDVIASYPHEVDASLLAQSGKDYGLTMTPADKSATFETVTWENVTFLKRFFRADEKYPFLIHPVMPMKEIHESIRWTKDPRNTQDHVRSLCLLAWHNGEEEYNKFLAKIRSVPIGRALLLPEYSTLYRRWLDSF
MenB inh: blocks the Mycobacterium tuberculosis MenB enzyme; P9WNP5; 100,000 compounds, 0.43% hits; MenB enzyme assay, absorbance read-out; some hits fall short of the stated cut; inhibition, %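 (about 12 µg/mL by stock and volumes)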; AID 540299;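 active means mean of two replicates above 30%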;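 further: 0% = no compound and 100% = wells with inactive enzyme; the first replicate is given; strong numbers were not always called active; inactives centre near -10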
PV pol inh intensity: also measured in PV pol inh; calls as there; % elongation; measured here: total intensity read-out; formula for this scale not given here;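 total fluorescence in place of polarization; lower means less elongation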
* = called active by the depositor; / = no result given. This is a random part of the collection. Share with any hit: about 1.9%.

SMILES	Mtb MbtI inh	PV pol inh	PV pol inh intensity	MenB inh
Cc1c(-c2ccccc2OC(=O)c2ccccc2)[nH]c2ccccc12	/	106.0	112.0	-20.4
CC1CN(c2cc(-c3ccccc3)c3ccccc3n2)CC(C)O1 (stereo not given)	54.8	99.0	110.0	-5.6
O=C(O)c1ccccc1OCc1ccccc1	-4.2	100.0	102.0	/
O=C(COc1ccc(Br)cc1)OCC(=O)N1CCCCC1	-3.9	98.0	101.0	/
CCCCc1ccc(NC(=O)COC(=O)c2ccc(Cl)nc2)cc1	-1.6	103.0	100.0	/
NC(N)=N/N=C/C=C/c1ccccc1	29.2	102.0	101.0	-0.1
CCN(CC)c1nc(N2CCN(C)CC2)nc2ccccc12	3.1	99.0	100.0	6.3
C=CCNC(=S)NNc1nccc(-c2cccnc2)n1	28.8	100.0	104.0	-6.3
CN(C(=O)COC(=O)c1cccs1)c1ccccc1	-12.0	105.0	113.0	0.4
CC(C)CCn1c(Br)nc2c1c(=O)n(Cc1ccccc1)c(=O)n2C	-6.8	102.0	101.0	-1.0
CN[C@@H]1CC2(C)OC([C@@H]1OC)n1c3ccccc3c3c4c(c5c6ccccc6n2c5c31)C(=O)NC4 (stereo not given in full)	/	100.0	104.0	-6.3
O=C(CSc1ncc(C(F)(F)F)cc1Cl)NCCCN1CCCC1=O	-3.6	104.0	112.0	2.2
O=C(Cc1coc2ccc3ccccc3c12)Oc1ccc(-c2nnco2)cc1	17.4	104.0	111.0	-31.4
O=C(c1cnn(-c2ccccc2)n1)N1CCCN(S(=O)(=O)c2ccc(F)cc2)CC1	12.9	100.0	101.0	-14.0
Cc1ccc2c(cnn2C(=O)CCC(=O)N2CCCCC2C)c1 (stereo not given)	-8.8	106.0	107.0	-13.1
O=C(CSc1nccc(=O)[nH]1)Nc1ccc(Oc2ccccc2)cc1	-4.2	102.0	101.0	-6.6
CCOc1ccc(CCNC(=O)Nc2cn(C)c(=O)c3ccccc23)cc1OCC	-7.2	101.0	102.0	-12.2
O=c1nc2n(c3cc(Cl)c(S(=O)(=O)N4CCOCC4)cc13)CCC2	-3.2	99.0	105.0	-13.6
N#CCC(=O)Nc1ccccc1C(F)(F)F	6.2	105.0	111.0	-12.6
CSc1ccccc1C(=O)NCC(c1ccco1)N(C)C (stereo not given)	23.5	102.0	103.0	-11.0
Cc1[nH]c(SCC(=O)NCCN2CCOCC2)nc1Cc1ccccc1	-1.8	106.0	109.0	-19.6
CCN(CC)S(=O)(=O)c1cccc(C(=O)Nc2nncs2)c1	/	101.0	96.0	-5.1
N#Cc1ccccc1OCCCCSc1ncccn1	-17.9	101.0	103.0	-10.5
COc1ccc(-c2cc(C(=O)N3CCN(Cc4ccccc4)CC3)[nH]n2)cc1	3.5	100.0	101.0	-3.2
CC(=O)N1C(=O)N(C)C2C1N(C(C)=O)C(=O)N2C (stereo not given)	-1.3	102.0	105.0	0.6
Cc1cc(C(=O)CSc2nnc3sc4ccccc4n23)c(C)n1CCc1ccccc1	-11.9	100.0	100.0	-38.8
O=C(CN1C=NS(=O)(=O)c2ccccc21)N1CCCCCC1	-13.1	100.0	102.0	-2.7
Cc1cc(C)nc(SCCS(=O)(=O)Cc2ccccc2)n1	-3.3	104.0	102.0	-4.4
NNC(=O)c1csc(CS(=O)(=O)c2ccc(Cl)cc2)n1	-5.9	103.0	106.0	7.0
C=C(C)CN(CC)Cc1ccc(C(=O)OC)cc1	-8.0	100.0	103.0	9.5
CC1CC(C)(C)NC(=S)N1CCCC(=O)Nc1ccc2c(c1)OCCO2 (stereo not given)	7.5	102.0	102.0	-2.1
Cc1ccc(C(=O)OCCCCN2C(=O)c3ccccc3C2=O)cc1NC(=O)c1ccco1	-10.1	103.0	103.0	-19.3
COC(=O)c1cc(S(=O)(=O)C(C)C)c(S(C)(=O)=O)s1	2.3	100.0	100.0	2.9
COc1ccc(CNc2ccc(NC(=O)c3ccco3)c(C)c2)cc1	4.4	100.0	102.0	-14.8
COC(=O)c1ccc(COC(=O)C2CCN(C(=O)c3ccc(Cl)cc3)CC2)o1	-1.9	103.0	102.0	-16.9
NC(=O)CN1C(=O)C(O)(CC(=O)c2ccccc2)c2ccccc21 (stereo not given)	-5.7	103.0	106.0	/
O=C(NC1CC2CCC(C1)N2C(=O)NC1CCCCC1)NC12CC3CC(CC(C3)C1)C2 (stereo not given)	-1.9	102.0	101.0	-27.4
CCN1C(=O)c2ccccc2Sc2ccc(C(=O)NCC3CCCO3)cc21 (stereo not given)	3.5	101.0	103.0	-22.1
COc1ccc(S(=O)(=O)N(CCc2ccccc2)CC(=O)N2CCN(C)CC2)cc1Cl	-8.9	101.0	101.0	-21.7
O=C1NC(=Nc2ccccc2O)CS1	14.5	99.0	107.0	0.0
CCN(CC(=O)NCc1ccc(F)cc1)C(=O)Cc1coc2cc3c(cc12)CCC3	2.3	102.0	104.0	-11.9
COC(=O)C1=C(CN2CC(C)CC(C)C2)NC(=O)NC1c1ccc(OC)cc1 (stereo not given)	0.2	100.0	100.0	-35.5
CCN(CC)S(=O)(=O)c1ccc(NC(=O)Nc2cn(CC(C)C)c(=O)c3ccccc23)cc1	-6.8	98.0	101.0	5.3
O=S(=O)(c1ccccc1)c1nc(-c2cccs2)oc1NCc1ccccc1	-5.8	104.0	108.0	-34.9
CC(=O)OC1CC(C(=O)O)N(S(=O)(=O)c2ccc(C)cc2)C1 (stereo not given)	0.5	101.0	99.0	-8.9
Cc1c(C#N)c2nc3ccccc3n2c(=O)/c1=C\Nc1ccc(N2CCOCC2)c(Cl)c1	0.8	100.0	102.0	-16.3
CCN(CC)c1cc(C)c2cc(NC(=O)c3ccc(Br)o3)ccc2n1	3.3	102.0	103.0	0.0
Cc1ccc2nc(-c3ccncc3)cc(-c3ccccc3)c2c1	-183.1	102.0	95.0	-19.2
O=c1[nH][nH]c(=S)n1C1CCCCC1	56.9*	102.0	104.0	3.6
CCCCn1c(SCC(=O)N(C(C)C)C(C)C)nc2c1c(=O)n(C)c(=O)n2C	-1.6	104.0	103.0	-30.6
COC(=O)C1=C(C)Nc2[nH]c(=S)[nH]c(=O)c2C1c1ccccc1 (stereo not given)	25.1	99.0	98.0	-16.0
COc1ccc(C)cc1NC(=O)c1c(Cl)nc2sccn12	27.4	102.0	107.0	/
COC(=O)c1cc(COC(=O)C2(c3cccc(F)c3)CCCC2)oc1C	-5.8	106.0	104.0	-14.4
O=C1C=CC(=O)N1c1ccccc1Br	99.1*	104.0	103.0	/
O=C(NCc1ccc(Cl)c(Cl)c1)c1cccnc1OCC(F)(F)F	-10.4	96.0	100.0	-29.7
O=S(=O)(Cc1ccccc1)N1CCCCCC1	/	106.0	114.0	-0.6
O=C1/C(=C/c2ccc(N3CCOCC3)cc2)CCc2ccccc21	4.5	105.0	116.0	-7.9
COc1ccc(-n2cc(-c3ccccc3)c3c(N4CCCCC4)ncnc32)cc1	10.1	103.0	104.0	-7.8
C=CCN(Cc1nc(-c2ccccc2)no1)C(=O)Nc1ccccc1	-10.2	101.0	103.0	-28.1
COC(=O)CNC(=O)C12CC3CC(C)(CC(C)(C3)C1)C2	-18.8	103.0	104.0	-22.7

(further entries)
SMILES	Mtb MbtI inh	PV pol inh	PV pol inh intensity	MenB inh
O=C(O)CCCN1CCCC1=O	-4.5	102.0	100.0	-3.8
O=c1c(F)cn(C2CCCO2)c(=O)n1Cc1ccccc1F (stereo not given)	0.8	101.0	101.0	10.0
Cc1ccn2c(NC3CCCC3)c(-c3cccnc3)nc2c1	-6.4	102.0	105.0	-3.2
COc1cc(C2CC(=O)C3=C(C)Nc4ccccc4N=C3C2)cc(OC)c1OC (stereo not given)	-1.6	107.0	100.0	-75.8
CCC(COc1nnnc2ccccc12)NS(=O)(=O)c1ccc(-n2cnnn2)cc1 (stereo not given)	-22.6	104.0	102.0	4.7
O=C(CCCCc1cccs1)Nc1ccccc1F	/	97.0	98.0	-1.6
COc1ccccc1C(C#N)N1N=C(C)CC1c1ccccc1 (stereo not given)	-20.9	103.0	103.0	2.1
Nc1nnc(C(=O)c2ccccc2N)s1	7.7	98.0	95.0	-148.0
Cc1cc(Cl)ccc1OCCCC(=O)NC1(C)CCS(=O)(=O)C1 (stereo not given)	3.6	99.0	102.0	-11.0
N/C(=N\OC(=O)c1ccc2c(c1)OCO2)c1ccc(Cl)cc1	1.0	100.0	103.0	14.2
Cc1nccn1Cc1cccc2ccccc12	-6.6	96.0	99.0	/
CC1CCCCN1C(=O)CSC1=NS(=O)(=O)c2ccccc2N1 (stereo not given)	-22.1	101.0	102.0	1.8
CCN1CC2CCCC3(C1)C(=O)NC1(CCCCC1)N=C23 (stereo not given)	0.6	101.0	102.0	0.0
Nc1nc2c(c3c1c(=O)oc1ccccc13)CCCC2	-93.6	102.0	103.0	22.7
Cc1ccc(-c2csc(CS(=O)(=O)C(C)(C)C)n2)cc1	-11.2	104.0	108.0	5.3
Cc1onc(NC(=O)CSCC(=O)O)c1Br	-9.2	104.0	114.0	15.4
O=C(O)CSC1=NCCN1	-8.0	102.0	104.0	0.0
COc1ccc(Br)c(C(=O)/C(C#N)=N/O)c1	-4.7	102.0	97.0	-1.6
CC(C)(C)NC(=O)CSc1nnc(Cc2ccc3c(c2)OCO3)n1C1CCCCC1	-6.9	101.0	105.0	-29.3
CN(C)/C=N/c1nnc(SCC(=O)c2ccc(Cl)cc2)s1	10.4	102.0	100.0	-11.4
CC(C)N(C(=O)CSc1ccc(Br)cc1)c1ccccc1	1.0	102.0	101.0	/
COc1ccc(-n2cnc3ccccc3c2=O)cc1OC	/	103.0	98.0	-2.9
CCCc1nc(-c2ccccn2)[nH]c(=O)c1Cc1c(F)cccc1Cl	3.8	104.0	108.0	-22.0
Cc1ccccc1Nc1nc(N)nc(CSc2nc(C)c(C)n2CC(C)C)n1	-2.1	107.0	115.0	-25.6

Taken from above for reference:
SMILES	Mtb MbtI inh	PV pol inh	PV pol inh intensity	MenB inh
CC1CCCCN1C(=O)CSC1=NS(=O)(=O)c2ccccc2N1 (stereo not given)	-22.1	101.0	102.0	1.8
CCN1CC2CCCC3(C1)C(=O)NC1(CCCCC1)N=C23 (stereo not given)	0.6	101.0	102.0	0.0
Nc1nc2c(c3c1c(=O)oc1ccccc13)CCCC2	-93.6	102.0	103.0	22.7
Cc1ccc(-c2csc(CS(=O)(=O)C(C)(C)C)n2)cc1	-11.2	104.0	108.0	5.3
Cc1onc(NC(=O)CSCC(=O)O)c1Br	-9.2	104.0	114.0	15.4
O=C(O)CSC1=NCCN1	-8.0	102.0	104.0	0.0
COc1ccc(Br)c(C(=O)/C(C#N)=N/O)c1	-4.7	102.0	97.0	-1.6
CC(C)(C)NC(=O)CSc1nnc(Cc2ccc3c(c2)OCO3)n1C1CCCCC1	-6.9	101.0	105.0	-29.3
CN(C)/C=N/c1nnc(SCC(=O)c2ccc(Cl)cc2)s1	10.4	102.0	100.0	-11.4
CC(C)N(C(=O)CSc1ccc(Br)cc1)c1ccccc1	1.0	102.0	101.0	/
COc1ccc(-n2cnc3ccccc3c2=O)cc1OC	/	103.0	98.0	-2.9
CCCc1nc(-c2ccccn2)[nH]c(=O)c1Cc1c(F)cccc1Cl	3.8	104.0	108.0	-22.0
Cc1ccccc1Nc1nc(N)nc(CSc2nc(C)c(C)n2CC(C)C)n1	-2.1	107.0	115.0	-25.6

Other structures:
SMILES	Mtb MbtI inh	PV pol inh	PV pol inh intensity	MenB inh
CSc1ncccc1C(=O)OCC(=O)Nc1ccc(NC(C)=O)cc1	-13.9	106.0	107.0	-15.6
Cn1c2ccccc2c2nnc(NN)nc21	13.9	102.0	102.0	-22.8
Cc1ccc(C=C2C(=O)NC(=O)NC2=O)cc1	22.0	99.0	94.0	-54.5
CC1(C)Cc2ccccc2C(c2cc3ccccc3oc2=O)=N1	-1.0	102.0	104.0	-23.2
CCOc1ccc(N=CC2=C(O)CC(c3ccco3)CC2=O)cc1 (stereo not given)	1.3	102.0	101.0	-39.4
COc1cc2cc(C)nc(C)c2cc1OC	166.2	95.0	99.0	-11.3
CCCCN(C)Cc1cccc(OC)c1OC	-7.6	102.0	105.0	-10.8
CC(C)NC(=O)CCc1nnc2n(Cc3ccc(Cl)cc3)c(=O)c3ccccc3n12	1.1	102.0	103.0	-2.4
CSc1scc(N)c1S(=O)(=O)C(C)C	-5.9	100.0	96.0	-36.1
Cc1c(C(=O)NCc2cccc(Cl)c2)oc2c1-c1[nH]ncc1CC2	-26.6	99.0	103.0	1.4
CSc1cccc(NC(=O)c2nnn(CC(=O)Nc3cc(C)cc(C)c3)c2N)c1	3.3	98.0	103.0	-3.3
COC(=O)COc1ccccc1O	-6.6	103.0	103.0	/
CC1CN(C)C(C)/C(=C\c2ccco2)C1=O (stereo not given)	11.6	101.0	115.0	-52.1
CCCCOc1ccccc1C(=O)NCC(=O)NN	7.3	102.0	101.0	-12.1
COc1ccc(NC(=O)Cn2ncc3c([nH]c4ccccc43)c2=O)cc1	-9.9	102.0	103.0	-2.5
CC1=CC(=C2C(=O)c3ccccc3C2=O)C=C(C)N1CCN1CCOCC1	3.5	/	/	-34.9
O=C(O)C1CCN(C(=O)C2CC2)CC1	-6.8	104.0	106.0	-18.9
O=C1Nc2ccccc2S/C1=C\C(=O)N1CCN(Cc2ccccc2)CC1	4.8	103.0	100.0	-11.9
CN(CC(=O)Nc1ccc(-c2nnc3n2CCCCC3)cc1)S(=O)(=O)c1ccc(Cl)s1	-5.1	100.0	107.0	-29.5
O=C(CCc1cn(Cc2ccc(F)cc2)c2ccccc12)NCC1CCCO1 (stereo not given)	1.6	102.0	101.0	-14.4
